# Screening data deposited in PubChem BioAssay by National Center for Advancing Translational Sciences (NCATS).
# Cruzain Triton: cruzain (T. cruzi) inhibition with detergent; P25779; purified cruzain, Z-FR-AMC fluorescence, 0.01% Triton; Potency, µM, inactives show max response, negative = inhibition, actives largely listed as inhibitors; 200,000 tested, 0.43% active; active = well fitted curve in the direction sought with a large enough effect; inconclusive = small, poorly fitted or top-dose-only effect, or another doubt; inactive = no such curve, though single readings can be large; an effect the other way counts as inactive or inconclusive;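 also: plate controls were neutral wells for no effect and buffer without enzyme for full effect; nearly all actives have a fitted effect of over 40% in size; top concentration of the series not given in the record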
# Target sequence (P25779 123-467 limits assumed): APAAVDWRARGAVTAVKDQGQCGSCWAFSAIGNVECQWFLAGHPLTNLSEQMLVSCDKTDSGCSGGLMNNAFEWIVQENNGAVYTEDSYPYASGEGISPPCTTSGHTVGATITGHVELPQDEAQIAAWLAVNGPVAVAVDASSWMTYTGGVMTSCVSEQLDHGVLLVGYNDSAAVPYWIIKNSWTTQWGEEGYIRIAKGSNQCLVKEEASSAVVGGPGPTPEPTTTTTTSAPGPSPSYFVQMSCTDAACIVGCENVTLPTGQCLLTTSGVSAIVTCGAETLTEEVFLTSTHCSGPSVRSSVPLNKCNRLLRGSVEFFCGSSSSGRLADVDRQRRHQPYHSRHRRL
#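 15 min RT preincubation of 1.5 nM cruzain with compound, then 2 uM Z-FR-AMC added; kinetic AMC fluorescence, 60 s delta. Triton X-100 0.01%, pH 5.5.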
# Marburg entry inh: inhibitors of Marburg virus binding or cell entry | Marburg virus pseudotyped entry inhibition, cell reporter; control for the full effect not named in the record; about a third of the inactives were read at about 46 µM | Potency, µM (series often up to 37.8 µM), for inactives: at the top dose activity change, negative = inhibition, most hits filed as inhibitors | 300,000 tested, 1.8% active; active = well fitted inhibition curve with a large enough effect; inconclusive = small, poorly fitted or top-dose-only effect, or effect the other way; inactive = flat fitted curve, though single readings scatter; tested in HEK293 cells; about a fifth of its hits are not listed in these tables; also: % is scaled to controls: 0 for no effect and ±100 for the full control effect; luciferase read-out
# NS1 inh: influenza NS1 inhibition. S. cerevisiae slowed by influenza A NS1, growth recovery by OD600. Potency, µM (series often up to 46.1 µM), for the others: at the highest dose activity, positive = more growth. 270,000 tested, 0.4% active; also: actives are rising curves; nearly all actives have a fitted effect of over 50% in size
#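 Compounds were scored for reversing the slow growth caused by influenza A NS1 in S. cerevisiae, measured by optical density at 600 nm. Assay medium contained 2% galactose at pH 6.0; NS1-free yeast of the same strain were the positive control.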
# 2A StopGo: lowers the luciferase signal of an FMDV 2A StopGo reporter; human cells with a luciferase reporter of 2A StopGo recoding; control for the full effect not named in the record; Potency, µM (highest dose often 57.9 µM), for the others: at the top dose signal change, negative = less light; 410,000 tested, 1.2% active; AID 1159524; active = well fitted falling curve with a large enough effect; inconclusive = small, poorly fitted or top-dose-only effect; inactive = no such curve, though single readings can be large or run the other way; tested in HEK293T cells; also: % is scaled to controls: 0 for no effect and ±100 for the full control effect; nearly all actives have a fitted effect of over 45% in size; luciferase light after 4 h
# Cruzain inh noDet: inhibitors of Trypanosoma cruzi cruzain without detergent. P25779. purified cruzain, Z-FR-AMC fluorescence, no detergent. 200,000 tested, 2.3% active. Potency, µM, for the others: max response, negative = inhibition, actives largely listed as inhibitors. AID 1476; active = well fitted curve in the direction sought with a large enough effect; inconclusive = small, poorly fitted or top-dose-only effect, or another doubt; inactive = no such curve, though single readings can be large; an effect the other way counts as inactive or inconclusive;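 also: plate controls were enzyme without inhibitor for no effect and buffer without enzyme for full effect; nearly all actives have a fitted effect of over 40% in size; top concentration of the series not given in the record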
#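 Detergent-free condition (0.00005% Triton X-100) in acetate buffer pH 5.5 with DTT. 1.5 nM enzyme and compound were pre-mixed 15 min, then 2 uM Z-FR-AMC substrate added; reaction progress from fluorescence change between first and third reads (60 s).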
# Lassa entry inh: inhibitors of Lassa virus binding or cell entry | Lassa virus pseudotype entry inhibition, cell reporter; control for the full effect not named in the record | Potency, µM (series often up to 37.9 µM), for the others: at the top dose activity change, negative = inhibition, usual class: inhibitors | 300,000 tested, 1.2% active | AID 540256; active means well fitted inhibition curve with a large enough effect; inconclusive means small, poorly fitted or top-dose-only effect, or effect the other way; inactive means flat fitted curve, though single readings scatter; tested in HEK293 cells; also: % is scaled to controls: 0 for no effect and ±100 for the full control effect; nearly all actives have a fitted effect of over 50% in size; luciferase read-out
# SARS PLP yeast: SARS-CoV PLP inhibition in yeast | S. cerevisiae expressing SARS-CoV PLpro, growth rescue; control for the full effect not named in the record | Potency, µM (top dose mostly 32.9 µM), inactives show at the highest dose activity, positive = growth rescue | 330,000 tested, 0.19% active; also: 0% is about no effect; nearly all actives have a fitted effect of over 55% in size; growth read by luminescence after 48 h
# RE007 growth inh: less growth of the S. pombe RE007 Vpr strain; Potency, µM (titrated, usually from 92.2 µM), without a hit: at the highest dose activity change, negative = less growth; 360,000 tested, 0.21% active; S. pombe RE007 Vpr strain, BacTiter-Glo ATP luminescence, 24 h; control for the full effect not named in the record; active = well fitted falling curve with a large enough effect; inconclusive = small, poorly fitted or top-dose-only effect; inactive = no such curve, though single readings can be large or run the other way;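 also: % is scaled to controls: 0 for no effect and ±100 for the full control effect; nearly all actives have a fitted effect of over 50% in size; the assay follows cell death caused by Vpr and the record does not say whether a fall means rescue or toxicity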
#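 Fission yeast strain RE007, carrying one chromosomally integrated HIV-1 vpr copy, was seeded at OD 0.01 in PMG+AL medium with 23 nL pinned compound. After 24 h at 30 °C and 99% humidity, viability was read by BacTiter-Glo luminescence.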
# The depositor's hits bear a star; ? = inconclusive; . = no result given; & = joins results of further samples; [ ] = dose if it differs, or a comment. Unless noted, calls follow the shape of the dose curve; as a rule, active means well fitted rising curve with a large enough effect; inconclusive means small, poorly fitted or top-dose-only effect; inactive means no such curve, though single readings can be large or run the other way. Potency is read from the fitted curve at half-maximal effect.
SMILES,Cruzain Triton,Marburg entry inh,NS1 inh,2A StopGo,Cruzain inh noDet,Lassa entry inh,SARS PLP yeast,RE007 growth inh
O=C(O)CCCN1C(=O)c2ccc(Oc3cccc([N+](=O)[O-])c3)cc2C1=O,.,9.4%[46.1 µM],2.6%,-16.7%,.,2.6%[46.1 µM],0.5%,-2.9%
CCCn1cc(CN2CCN(Cc3ccc(C)o3)C(CCO)C2)c(C)n1 (stereo not given),.,5.0%[46.1 µM],-1.4%,-3.9%,.,24.5%,1.9%,-5.5%
Cn1c2ccccc2c2nnc(SCCN3CCOCC3)nc21,.,.,2.0%,15.3%,.,.,0.4%,4.1%
COc1ccc(C(=O)NCCc2nnc3ccc(SCC(=O)Nc4ccccc4F)nn23)cc1,.,6.4%,-12.1%,-14.4%,.,-1.5%,4.8%,24.8%
CCOC(=O)c1cnc2c(c(C)nn2CC)c1NC1CC1,.,-0.5%[46.1 µM],-37.5%,-30.0%,.,-11.1%,-1.6%,7.6%
CCc1ccccc1NC(=O)CN1C(=O)CCSc2ccc(S(=O)(=O)N3CCCC3)cc21,0.1%,.,.,1.4%,10.3%,0.4%[46.1 µM],.,.
CN(CC1CCCO1)S(=O)(=O)c1ccc(C(=O)Nc2ccc3c(c2)OCO3)cc1 (stereo not given),.,4.1%[46.1 µM],.,8.4%,.,-19.4%[46.1 µM],-2.0%,-4.8%
CCn1c(=S)[nH]c2cc(S(=O)(=O)N3CCCCC3)ccc21,0.6%,3.8%,8.5%,.,-2.7%,19.1%,2.7%,10.6%
CCOC(=O)/C(=C\c1ccc(C)cc1)NC(=O)c1ccccc1,.,0.9%[46.1 µM],6.1%,3.0%,.,6.7%[46.1 µM],0.1%,2.5%
CCOC(=O)c1cnc2c(C(=O)OC)cccc2c1NCCN1CCOCC1,-5.8%,9.0%,-2.4%,0.1%,-12.5%,0.4%,-3.9%,11.2%
COC(=O)c1ccc(Oc2nc(C)cc(Oc3ccccc3)n2)cc1,-5.0%,-1.9%,-35.0%,-7.0%,9.7%,-2.4%,-14.2%,-15.1%
Cc1cc(/C=C2\C(=O)NC(=O)N(c3ccc(F)cc3)C2=O)c(C)n1-c1ccc(C(=O)O)cc1,.,2.2%[46.1 µM],1.2%,-4.5%,.,?,1.9%,-1.3%
COc1cc(C(=O)NC(=S)N(CCC#N)Cc2cccnc2)cc(OC)c1OC,.,5.9%,.,-10.9%,.,0.3%,-11.9%,-2.7%
COc1ccc(/C=C/c2noc(-c3ccccc3O)n2)cc1,-9.9%,?,14.9%,0.0%,-13.6%,11.2µM*,6.2%,-20.3%
COc1ccc(C2C(C#N)=C(N)N(c3cccnc3)C3=C2C(=O)CCC3)cc1Cn1cc([N+](=O)[O-])cn1 (stereo not given),-3.0%,-2.9%,12.8%,-19.0%,-11.6%,-4.2%,2.2%,12.0%
O=C(CCc1nc2ccccc2c(=O)[nH]1)Nc1ccc(N2CCCCC2)cc1,.,-13.3%,.,-23.6%,.,-1.0%,0.0%,15.1%
COC(=O)c1cc(NC(=O)c2c(Cl)cnn2C)cc(C(=O)OC)c1,-1.5%,-12.0%,5.0%,-23.8%,3.5%,18.9%,-12.3%,-4.1%
Cc1ccc(-c2nnc(-n3nnc4ccccc43)c3ccccc23)cc1,1.5%,?,8.9%,3.7%,?,-13.7%,2.3%,-8.9%
Cc1ccc(N2C(=O)CC(=O)NC2=O)cc1,2.3%,-1.0%,3.7%,7.7%,-5.4%,4.0%,.,6.8%
COc1cccc(CNC(=O)C2CCN(S(=O)(=O)c3ccc4c(c3)OCCO4)CC2)c1,.,16.3%,-3.3%,-26.0%,.,-2.7%,7.4%,20.8%
COc1cccc(NC(=S)NC2CC(C)(C)NC(C)(C)C2)c1,-2.8%,0.0%,-4.2%,-19.6%,-3.4%,15.8%,2.6%,.
CC(C)Sc1nc2ccc(Br)cc2[nH]1,.,?,-34.0%,29.2%,.,7.0%[46.1 µM],-3.1%,0.3%
Cc1cc(C)cc(N2C(N)=NC(N)=NC2c2ccccc2F)c1 (stereo not given),.,.,2.6%,11.0%,.,.,4.0%,25.7%
O=C1Cc2ccccc2C(=O)N1Cc1cccc(Cl)c1,.,1.8%,12.8%,-6.7%,.,?,-0.2%,-12.4%
Cc1nccn1CCCNC(=O)c1nc(Cn2cc([N+](=O)[O-])cn2)no1,.,-0.8%[46.1 µM],-7.9%,-1.3%,.,.,0.9%,19.8%
CCN1CCN(Cc2cccc(Oc3ccc(Cl)cc3)c2)CC1,0.6%,?,-1.1%,.,13.2%,?,-5.1%,12.4%
N#CC12CCCCC1CC1CCCCC1(C#N)N2N (stereo not given),.,-9.1%,2.5%,-12.0%,.,?,-1.1%,0.1%
CCCc1cc2c(OC(=O)CC)c(-c3ccc(C(=O)OCC)o3)c(=O)oc2cc1OC,-11.3%,?,-2.5%,?,-18.9%,2.0%,-4.9%,2.3%
COc1ccc(C(=O)CSc2nnc(-c3ccco3)n2C)cc1,-1.0%,-15.7%,-8.3%,-4.5%,-11.0%,?,10.6%,71.0%
Clc1ccc(CSc2cnnc3ccccc23)cc1Cl,.,?,.,16.0%,.,11.3%[46.1 µM],.,-1.4%
O=C(c1ccc(CNc2c(N3CCOCC3)c(=O)c2=O)cc1)N1CC=C(c2ccccc2)CC1,-3.9%,.,-15.4%,-3.9%,?,.,-6.1%,-13.3%
COc1ccc(CCN(C)CCCN2CC(c3ccccc3)CC2=O)cc1OC (stereo not given),.,6.7%,.,-28.8%,.,-0.1%,-0.4%,-9.8%
COC(=O)CSc1nc(N)nc(C)c1Cl,.,-12.5%[46.1 µM],-3.6%,13.1%,.,?,0.1%,-15.6%
CC(=O)c1cc2c(cc1F)C(C)(C)CCC2(C)C,.,21.5%,.,-16.2%,.,20.5%,.,-12.3%
CCCCOCC(O)CN1CCN(C(C)=O)CC1 (stereo not given),15.2%,13.4%,3.9%,.,4.2%,-16.8%,-2.7%,6.1%
Cc1ccc(NC(=O)CCOc2ccccc2)cc1S(=O)(=O)Nc1ccccc1Cl,-7.2%,?,23.0%,19.7%,-5.8%,?,-12.2%,17.7%
CCCC(=O)OCCNC(=O)c1cc2ccccc2oc1=O,-3.4%,8.5%[46.1 µM],-13.0%,-17.4%,6.0%,0.4%,-0.6%,-14.2%
CC(Sc1nc2sccc2c(=O)n1-c1ccccc1)C(N)=O (stereo not given),.,-20.7%[46.1 µM],14.6%,4.3%,.,2.3%,1.5%,7.9%
COc1cccc(C2(CSc3nnc(-c4cc(OC)c(OC)c(OC)c4)o3)OCCO2)c1,-1.0%,-16.4%,-10.9%,?,?,11.2µM*,0.7%,-17.6%
Cc1ccccc1C(=O)NCCCCc1ccccc1,-0.6%,?,-28.9%,-3.7%,-7.9%,-28.7%,-18.9%,3.5%

# Random excerpt: 4 compounds from above
SMILES,Cruzain Triton,Marburg entry inh,NS1 inh,2A StopGo,Cruzain inh noDet,Lassa entry inh,SARS PLP yeast,RE007 growth inh
N#CC12CCCCC1CC1CCCCC1(C#N)N2N (stereo not given),.,-9.1%,2.5%,-12.0%,.,?,-1.1%,0.1%
CC(=O)c1cc2c(cc1F)C(C)(C)CCC2(C)C,.,21.5%,.,-16.2%,.,20.5%,.,-12.3%
CCOC(=O)/C(=C\c1ccc(C)cc1)NC(=O)c1ccccc1,.,0.9%[46.1 µM],6.1%,3.0%,.,6.7%[46.1 µM],0.1%,2.5%
CC(Sc1nc2sccc2c(=O)n1-c1ccccc1)C(N)=O (stereo not given),.,-20.7%[46.1 µM],14.6%,4.3%,.,2.3%,1.5%,7.9%

# More records:
SMILES,Cruzain Triton,Marburg entry inh,NS1 inh,2A StopGo,Cruzain inh noDet,Lassa entry inh,SARS PLP yeast,RE007 growth inh
COc1ccc(CCC(=O)Nc2ccc(Cl)c(S(=O)(=O)N3CCOCC3)c2)cc1OC,.,6.31µM*,.,?,.,?,.,-9.3%
CC(C)N=C(NC#N)SCc1ccc(Br)cc1,2.1%,-8.5%,4.0%,-5.3%,-5.8%,5.1%,16.7%,-4.9%
CCCCC1C2C(=O)N(c3ccccc3)C(=O)C2ON1c1ccccc1 (stereo not given),.,.,7.7%,-0.5%,.,.,0.6%,-18.2%
COc1ccc(CNC(=O)c2sc3nc4n(c(=O)c3c2C)CCC4)cc1,-20.9%,.,.,6.5%,-12.5%,-13.7%[46.1 µM],.,.
CCCCS(=O)c1c(O)c2ccccc2[nH]c1=O (stereo not given),-2.6%,-9.2%,-3.4%,0.2%,-9.1%,?,-10.9%,-17.8%
Cn1c(C(=O)N2CCCC(C(=O)NCCc3ccccc3)C2)cc2sccc21 (stereo not given),3.5%,?,-12.0%,.,15.2%,?,-2.8%,5.0%
COc1ccccc1-c1nc(-c2ccc(Br)o2)no1,-1.0%&-1.6%,.,-42.4%,-0.2%&1.2%,-6.9%&6.7%,-23.6%[46.1 µM],9.7%,-9.3%
Cc1ccc(S(=O)(=O)NCc2ccccc2)cc1C(=O)NC1CCC(C)CC1 (stereo not given),.,.,9.2%,26.7%,.,.,2.4%,-11.4%
CCOc1ccc(-c2cc(C(=O)N3CCN(c4ccc(C)cc4)C(C)C3)c3ccccc3n2)cc1 (stereo not given),1.4%,.,.,28.2%,-6.6%,?,.,.
Cc1nnc(SC(C)C)n(N)c1=O,.,?,.,1.2%,.,-1.4%,-0.5%,-4.4%
O=C(/C=C/c1ccco1)Nc1cccnc1,.,?,4.5%,39.0%[activator],.,-3.9%[46.1 µM],-3.4%,4.6%
O=C(NCC(c1ccc2c(c1)OCO2)N1CCOCC1)c1ccc(F)cc1 (stereo not given),-0.4%,.,.,11.2%,1.1%,14.1%[46.1 µM],.,.
